# High-throughput results (PubChem BioAssay)
# MT1-MMP act inh = MT1-MMP (human) activation inhibition; P50281; HT1080 RFP-PRO-GFP cells, GFP/RFP ratio fluorescence, overnight; percent of plate control window, DMSO zero; GFP/RFP ratio change, % at 20 µM; 0.061% of 360,000 active;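 active means GFP/RFP ratio change of at least 30% with cell ATP level not reduced by more than half and red fluorescence within 50% of control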; further: strong numbers were not always called active
#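 Read-out: GFP/RFP fluorescence ratio; Test system: RFP-PRO-GFP reporter HT1080 cells; Compound dosing: single-point 20 µM compound, 1% DMSO; Times: overnight compound exposure at 37 °C.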
# Env fusion inh = inhibitors of HIV Env-mediated cell fusion; HeLa-JRFL Env/CEM21 cell fusion, luciferase; inhibition, % at 12.3 µM; 1.1% of 360,000 active; AID 651610;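 active means mean replicate inhibition score of at least 50 and every replicate individually at or above 50; inconclusive means only one of the two criteria met; inactive means mean below 50 and not all replicates reaching 50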;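 further: 0% = plate neutral controls and 100% = maraviroc near 300 nM; one replicate is shown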
# MT1-MMP act inh RFP = further read-out of MT1-MMP act inh, marked with its call; RFP signal change, %; measured here: RFP expression control read;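 0 = vehicle wells; hits needed this value within 50% of zero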
# An asterisk follows results filed as active; ? = inconclusive; [ ] = remark or other dose. Not all compounds are listed; rates above refer to the full screens.
Env fusion inh	MT1-MMP act inh RFP	MT1-MMP act inh	molecule
-26	0	-2	CCOC(=O)C1CCCN(C(=O)c2cc(C#N)cs2)CC1 (stereo not given)
-37	4	0	CCCCNC(=O)C(NC(=O)c1ccc(C(F)(F)F)cc1)C(=O)c1ccccc1 (stereo not given)
-30	4	1	COC(=O)C1C2CCCCC1C(=O)O2 (stereo not given)
12	-1	-4	COc1ccccc1-c1ccc2c(c1)C(C)(Cc1ccc(Cl)cc1)C(=O)N2 (stereo not given)
0	-6	-1	COC(=O)c1ccc2nc(-c3ccco3)c(Cc3ccccc3C(F)(F)F)n2c1
-13	-5	-1	COc1ccc(Cn2cc(CN3CCc4onc(-c5ccccc5OC)c4C3=O)nn2)cc1
-30	2	3	COC(=O)c1ccc2nc(-c3cccc(Br)c3)c(Cc3ccccc3OC)n2c1
17	0	-1	COCOCCn1cc(CN2CCS(=O)(=O)N(Cc3ccc(-c4ccc(Cl)cc4)cc3)C(C(C)C)C2=O)nn1 (stereo not given)
-10	4	2	Cc1cccc(C)c1-n1nnnc1C1(C)CCC(=O)N1C1CCN(Cc2ccccc2)CC1 (stereo not given)
-23	7	0	CCN1C(=O)CC2CCCC1C2 (stereo not given)
22	6	-1	CC1(c2nnnn2C2CCCC2)CCC(=O)N1c1ccc2c(c1)OCCO2 (stereo not given)
20	-8	5	Cc1ncoc1C(=O)NC1CCCc2c1cnn2-c1cc(F)cc(F)c1 (stereo not given)
37	-16	-16	COC(=O)[C@]12CCCCC=C1N(CCC1=CCCCC1)C(=O)[C@H](CC(=O)NCC13CC4CC(CC(C4)C1)C3)C2
7	8	-1	COC(=O)C(C(=O)OC)c1ccccc1NS(=O)(=O)c1ccc(C)cc1
-9	-2	2	COC(=O)CCCC[C@@H]1O[C@H](CCc2ccccc2)CC2=C1C(=O)OC(C)(C)O2
7	-1	-3	O=C(Cc1ccccc1[N+](=O)[O-])NCC(=O)c1ccc2c(c1)OCO2
-35	0	-5	CCCCN(C(=O)Cc1ccc(S(=O)(=O)N2CCOCC2)s1)c1c(N)n(CC(C)C)c(=O)[nH]c1=O
7	7	4	Cc1cc(C)c(S(=O)(=O)NN=C2c3ccccc3[C@H]3Cc4csc[n+]4[C@@H]23)c(C)c1
5	-9	-1	CSc1ccc(CN2CCC2(C)C(=O)NCc2cccs2)cc1 (stereo not given)
-10	-2	-3	CCCCCNC(=O)C(c1ccc(-c2ccccc2)cc1)n1c(=O)c(-c2cc3ccccc3[nH]2)nc2ccccc21 (stereo not given)
-51	3	7	COc1ccccc1C=NN=Cc1ccccc1O
19	4	2	CCOC(=O)N1CCN(C(=O)C[C@@H]2C[C@@]3(C(=O)OC)CCCCC=C3N(Cc3ccccc3)C2=O)CC1
-47	0	-1	COC(=O)[C@]12CCCCC=C1N(Cc1ccccc1)C(=O)[C@H](CC(=O)NCCCN1CCCC1=O)C2
-14	3	1	O=C1NC[C@H](CCCCN2CCN(CCC3CCCCC3)C(=O)C2=O)N(CC2CCCCC2)C1=O
-3	2	-47	Cc1ccc(S(=O)(=O)OCC(=O)Nc2ccc(C(=O)O)c(O)c2)cc1
-3	-15	-9	COC(=O)[C@]12CCCCC=C1N(Cc1cccc3ccccc13)C(=O)[C@H](CC(=O)NCCCCc1ccccc1)C2
-13	1	1	COc1cccc(CNC(=O)[C@@H]2CCCN2C(=O)[C@H]2CCCCN2C(=O)c2cccc(OC)c2)c1
-26	3	12	O=C1NC[C@H](CC2CCCCC2)N(CCc2cccc3ccccc23)C1=O
-227	-3	3	CN(C)c1ccc2c(c1[N+](=O)[O-])Cc1ccccc1-2
-136	-7	2	CCCCn1nnnc1C(c1ccccc1)N1CCN(c2ccc(F)cc2)CC1 (stereo not given)
6	2	-5	O=C(Nc1ccc(F)cc1)C(c1ccncc1)N1CCN(C(=O)c2ccco2)CC1 (stereo not given)
-48	-5	5	CC(C)C[C@H]1CNC(=O)C(=O)N1C[C@@H]1CCCN1C[C@H](Cc1ccccc1)N1C[C@H](Cc2ccccc2)N(CCc2ccccc2)C(=O)C1=O
-27	1	3	CN(C)CC1CCC/C(=C\c2ccc(OC(=O)/C=C/c3ccccc3)cc2)C1=O (stereo not given)
-16	0	2	COCCN1C(=O)COc2ccccc2C1C(=O)NCc1ccccc1 (stereo not given)
-3	3	0	CSC(=NS(=O)(=O)c1ccccc1)NNC(=O)c1c(-c2c(Cl)cccc2Cl)noc1C
20	7	26	COC(=O)C1CCC(=O)N1C(c1ccc(OC)cc1)c1cc(OC)c(OC)c(OC)c1 (stereo not given)
13	1	-1	N#Cc1c(Cl)cccc1N1CCSCC1
3	-7	-15	COc1cc(OC)cc(C2=Cc3ccccc3C(CC(C)=O)N2c2ccc(C#CC3(O)CCCCC3)cc2)c1 (stereo not given)
-4	-7	-2	Cn1c(=O)c2[nH]c(CSCc3ccccc3)nc2n(C)c1=O
19	3	-7	Nc1c(-c2ccc(F)c(F)c2)nc2ncccn12
6	2	0	O=C(NCc1ccncc1)[C@@H]1CCCN1C(=O)[C@@H]1CCCN1C(=O)c1ccccc1Cl
27	1	-1	COC(=O)C[C@@H]1CC[C@H](NC(=O)CC2CC2)[C@@H](CO)O1
6	-4	-2	COc1ccc(C(C#N)=C2C=CC(=NO)C(C)=C2Cl)cc1
10	-10	-9	O=C(Nc1ccc2c(c1)OCCO2)C(c1ccc(C(F)(F)F)cc1)n1c(=O)c(-c2cc3ccccc3[nH]2)nc2ccccc21 (stereo not given)
-26	-10	-3	Oc1ccc(C[C@@H](CN2CCCC2CN2C(=S)NC[C@@H]2Cc2ccccc2)N2C[C@H](Cc3ccccc3)N(CC3CCCCC3)C2=S)cc1 (stereo not given in full)
1	6	0	O=C(C(=O)N1CCN(C(=O)c2ccco2)CC1)c1ccccc1
-2	-13	-7	CCCCn1nnnc1C(c1ccccc1)N1CCN(c2ccc(C(F)(F)F)cc2[N+](=O)[O-])CC1 (stereo not given)
-2	-3	2	O=C(O)C1(Nc2ccc([N+](=O)[O-])cc2[N+](=O)[O-])CCCC1
-16	-2	-12	Cc1nc(N)nc(N)c1-c1ccc(Cl)c(Cl)c1
-14	2	-1	COC(=O)Cn1c(C(=O)N2CCCC2)cc2c1C[C@H]1CN(C(=O)c3ccccc3)[C@@](Cc3ccc(OC)cc3)(C(=O)OC)[C@@H]21
-6	5	8	CCCCNC(=O)C1c2ccccc2OCC(=O)N1Cc1ccccc1 (stereo not given)
-15	0	-1	CCCCNC(=O)C[C@@H]1C[C@@]2(C(=O)OC)CCCCC=C2N(Cc2ccccc2)C1=O
-9	3	3	O=[N+]([O-])c1ccc(CSCc2ccc([N+](=O)[O-])cc2)cc1
-15	-4	-5	COc1ncc(-c2ccc(N3C(c4ccsc4)=Cc4ccccc4C3CC(C)=O)cc2)cn1 (stereo not given)
7	-11	1	CC(=O)C1(C)CCC2C3C=C(C)C4=CC(=O)CCC4(C)C3CCC21C (stereo not given)
-24	-2	3	COC(=O)[C@]1(Sc2ccc(OC)cc2)CC(=O)N[C@@H]1c1ccccc1
-26	2	-2	COc1cc(C(=C(CC(=O)O)C(=O)O)c2ccc3c(c2)OCO3)cc(OC)c1OC
-67	-16	-7	CCOC(=O)[C@]12CCCC=C1N(Cc1ccccc1)C(=O)[C@H](CC(=O)NCC13CC4CC(CC(C4)C1)C3)C2
-21	-6	1	Nc1[nH]c(C(=O)c2ccccc2)c(-c2ccc([N+](=O)[O-])cc2)c1C(=O)NCCc1c[nH]c2ccccc12
21	3	0	Cc1cc(Br)cn2c(Cc3cccc(Cl)c3)c(-c3cccc(Cl)c3)nc12

# 3 entries out of the list, ordered by molar mass, smallest number first:
Env fusion inh	MT1-MMP act inh RFP	MT1-MMP act inh	molecule
-4	-7	-2	Cn1c(=O)c2[nH]c(CSCc3ccccc3)nc2n(C)c1=O
5	-9	-1	CSc1ccc(CN2CCC2(C)C(=O)NCc2cccs2)cc1 (stereo not given)
-47	0	-1	COC(=O)[C@]12CCCCC=C1N(Cc1ccccc1)C(=O)[C@H](CC(=O)NCCCN1CCCC1=O)C2

# New compounds follow:
Env fusion inh	MT1-MMP act inh RFP	MT1-MMP act inh	molecule
-14	-24	-15	CSCCC(c1nc2ccccc2[nH]1)n1c(-c2cc(C(F)(F)F)cc(C(F)(F)F)c2)nc2ccccc21 (stereo not given)
11	1	-2	COc1ccc(C(=O)O)cc1S(=O)(=O)Nc1ccc(N2CCCCC2)cc1
-70	52	-19	CC1=NN(c2nc(N)nc(/C(C#N)=C/c3ccc([N+](=O)[O-])o3)n2)C(C)(C)C1
-6	-9	5	O=C1NC[C@H](CCCCN2C[C@@H](Cc3ccccc3)N(CCC3CCCCC3)C(=O)C2=O)N(CCC2CCCCC2)C1=O
-32	5	7	CCOC(=O)[C@]12CCC=C1N(Cc1ccc3c(c1)OCO3)C(=O)[C@H](CC(=O)NCCCOC)C2
23	-3	-4	O=c1[nH]c2cc(F)ccc2c2ccc(F)cc12
5	1	1	CCOc1cc2[nH]c(=O)n(CC3CCC(C(=O)NCCC(C)C)CC3)c(=O)c2cc1OCC (stereo not given)
-18	-5	1	COc1ccc(CN2C(=O)c3ccccc3C2c2nnnn2Cc2ccccc2)cc1OC (stereo not given)
10	3	-1	O=C(Nc1ccc(S(=O)(=O)Nc2nccs2)cc1)c1ccncc1
-38	-7	-3	Cc1csc(-c2nc3ccccc3n2C(C(=O)Nc2c(C)cccc2C)C2CC2)c1 (stereo not given)
?	-30	14	CCc1c(-c2ccccc2F)ncn1Cc1cccc(-c2ccccc2)c1
21	-5	-4	CCCCCNC(=O)C(CCc1ccccc1)n1c(=O)c(-c2cc3ccccc3[nH]2)nc2ccccc21 (stereo not given)
21	-4	3	Cc1cc(/N=C/C=C2/N(C)c3ccccc3C2(C)C)n(CCC#N)n1
3	1	-3	CCOc1ccc(C(=O)NC(C(=O)N2CCC2)C(C)C)cc1 (stereo not given)
-1	-1	3	CC(O)(c1ccccc1)c1ccc2ccccc2n1 (stereo not given)
26	10	7	CCCCC1Cc2[nH][nH]c(=O)c2C(c2ccc(F)cc2)O1 (stereo not given)
-3	4	0	CCOC(=O)[C@]12CCC=C1N(Cc1ccccc1)C(=O)[C@H](CC(=O)N1CCOCC1)C2
-191	8	17	CCN(CC)CCCNc1nc2ccccc2c2[nH]c3ccc(OC)cc3c12
1[16.7 µM]	5	0	CCCNC(=O)N[C@H]1CC[C@@H](CCn2cc(-c3cccc(F)c3)nn2)O[C@@H]1CO
30	-10	1	O=c1oc(=S)oc2c1[C@H](c1ccc(Cl)cc1)O[C@H](C1CCCC1)C2
13	-1	4	N#CC1(Nc2ccc(-c3ccc(NC4(C#N)CCCC4)cc3)cc2)CCCC1
12	5	3	O=C(NCc1ccccc1)C1c2ccccc2OCC(=O)N1CCc1ccccc1 (stereo not given)
-15	5	4	CC(C)(C)NC(=O)C(C1CC1)n1c(-c2ccccc2)nc2ccccc21 (stereo not given)
14	0	0	CC(C)C1C(=O)N(Cc2cn(CCC3OCCCO3)nn2)CCS(=O)(=O)N1Cc1ccc(-c2ccc(Cl)cc2)cc1 (stereo not given)
-58	0	0	O=C1NC[C@H](CCCCN2C[C@H](Cc3ccc(O)cc3)N(CCC3CCCCC3)C(=O)C2=O)N(CCC2CCCCC2)C1=O
-88	3	3	CC(C)C[C@H]1CN(CCCC[C@H]2CNC(=O)C(=O)N2CCc2ccccc2)C(=O)C(=O)N1CCC1CCCCC1
-21	6	-4	C(=C\c1ccc2nncn2c1)/c1ccccc1
3	2	1	Cc1cccc(C)c1NC(=O)C1(C)CSCC(=O)N1CCc1ccc(O)cc1 (stereo not given)
-152	2	5	CC(C)C[C@H]1COc2cc(N3CCN(Cc4ccccc4F)CC3)ccc2S(=O)(=O)N1
-156	0	-3	CCC(C(=O)NCc1ccccc1)n1c(-c2cccs2)nc2ccccc21 (stereo not given)
-16	5	7	CC(=O)c1ccc(NC(=O)c2cn(C)c(=O)c3ccccc23)cc1
8	-10	-5	COC(=O)c1ccc2nc(-c3ccc(F)cc3)c(Cc3cccc(F)c3)n2c1
7	2	1	COc1cc(CCC(=O)OCC(=O)N(CC(C)C)C2CCS(=O)(=O)C2)cc(OC)c1OC (stereo not given)
5	3	1	COCCNC(=O)C1(C)CCCN(CCOc2ccc(Cl)cc2)C1 (stereo not given)
-6	7	2	COc1nc(=O)n(C2CCCO2)cc1C (stereo not given)
-30	2	-5	COc1ccc(C(C(=O)Nc2c(C)cccc2C)N2CCN(C)CC2)cc1 (stereo not given)
-5	2	1	O=C(COC(=O)CN1C(=O)C2CCCCC2C1=O)Nc1cc(F)ccc1F (stereo not given)

# Another view of 4 compounds above:
COC(=O)c1ccc2nc(-c3ccc(F)cc3)c(Cc3cccc(F)c3)n2c1
  Env fusion inh: 8
  MT1-MMP act inh RFP: -10
  MT1-MMP act inh: -5
COCCNC(=O)C1(C)CCCN(CCOc2ccc(Cl)cc2)C1 (stereo not given)
  Env fusion inh: 5
  MT1-MMP act inh RFP: 3
  MT1-MMP act inh: 1
O=C1NC[C@H](CCCCN2C[C@H](Cc3ccc(O)cc3)N(CCC3CCCCC3)C(=O)C2=O)N(CCC2CCCCC2)C1=O
  Env fusion inh: -58
  MT1-MMP act inh RFP: 0
  MT1-MMP act inh: 0
CC(C)(C)NC(=O)C(C1CC1)n1c(-c2ccccc2)nc2ccccc21 (stereo not given)
  Env fusion inh: -15
  MT1-MMP act inh RFP: 5
  MT1-MMP act inh: 4
